High-throughput results (PubChem)
2A StopGo – High Throughput Screening for Foot and Mouth Disease Virus Antivirals | human cells with a luciferase reporter of 2A StopGo recoding; control for the full effect not named in the record | Potency, µM (top dose mostly 57.9 µM), without a hit: at the highest dose signal change, negative = less light | 410,000 compounds, 1.2% hits; active = well fitted falling curve with a large enough effect; inconclusive = small, poorly fitted or top-dose-only effect; inactive = no such curve, though single readings can be large or run the other way; tested in HEK293T cells; note: nearly all actives have a fitted effect of over 45% in size; luciferase light after 4 h
RE007 growth inh – qHTS Assay for Inhibitors of the HIV-1 protein Vpr; S. pombe RE007 Vpr strain, BacTiter-Glo ATP luminescence, 24 h; control for the full effect not named in the record; Potency, µM (series often up to 92.2 µM), for inactives: top-dose activity change, negative = less growth; 360,000 compounds, 0.21% hits; AID 651644, 2012; active = well fitted falling curve with a large enough effect; inconclusive = small, poorly fitted or top-dose-only effect; inactive = no such curve, though single readings can be large or run the other way;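 note: nearly all actives have a fitted effect of over 50% in size; the assay follows cell death caused by Vpr and the record does not say whether a fall means rescue or toxicity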
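Fission yeast strain RE007, carrying one chromosomally integrated HIV-1 vpr copy, was seeded at OD 0.01 in PMG+AL medium with 23 nL pinned compound. After 24 h at 30 °C and 99% humidity, viability was read by BacTiter-Glo luminescence.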
Active calls of the source: *; ? = inconclusive; [ ] = dose if it differs, or a comment. % is set by controls: 0 for no effect and ±100 for the full control effect; potency is the fitted concentration of half-maximal effect. Some of the compounds tested; rates above refer to the full screens.

SMILES	2A StopGo	RE007 growth inh
Cc1cc2nc(C3CCCCC3)c(Cc3ccccc3)n2c(C)c1Br	-28%	-7%
Cc1ccc(Cn2c(CCNc3nc(-c4ccc(Cl)c([N+](=O)[O-])c4)cs3)nc3cc(C(=O)NCCCO)ccc32)cc1	0%	2%
COc1cccc(CNC(=O)[C@@H]2CCCN2C(=O)[C@@H]2CCCN2C(=O)c2cccs2)c1	-12%	6%
Nc1nc2c(ncn2[C@H]2C[C@H](O)[C@@H](CO)O2)c(=O)[nH]1	-18%	3%[18.4 µM]
CC(C)[C@H]1COCCS(=O)(=O)N1Cc1ccccc1F	-9%	2%
C[C@@H]1CN([C@H](C)CO)C(=O)CCCn2nncc2CO[C@@H]1CN(C)S(=O)(=O)c1ccc(-n2cccn2)cc1	3%	-18%
Cc1sc2ncnc(N3CCC(C(=O)N4CC(C)SC4=Nc4ccc(Cl)cc4)CC3)c2c1C (configuration not stated)	-16%	-6%
COc1cccc(CNC(=O)[C@H](C)NC(=O)N2CC(=O)Nc3ccccc32)c1	-17%	-9%
CCc1nc2c(OCc3ccc(Cl)cc3)cccn2c1N(C)C(=O)c1ccccc1F	-20%	?
CN1C(=O)[C@@](O)(c2cn(C)c3ccccc23)c2ccccc21	-11%	6%
COc1cccc(NC(=O)C2(C)CCCN(C(C)C)C2)c1 (configuration not stated)	-12%	-4%
CCSc1ccc(-c2cc(NC=O)c3ncc(-c4cccc(C(=O)NCCN(C)C)c4)n3c2)cc1	-15%	3%[18.4 µM]
OC(c1ccc(F)cc1)c1nc(-c2cncnc2)cs1 (configuration not stated)	-13%	8%
Cc1ccc(NC(=O)CNC(=O)CN2C(=O)c3ccccc3C2=O)cc1	14%	0%
COc1ccccc1CNc1nc(NCc2ccccc2)nc2ccsc12	?	4%
COc1cccc(C)c1NC1=NCCO1	-24%	-4%
CSc1ccc(CN2CCC(C)(Oc3ccc4ccccc4c3)C2)cc1 (configuration not stated)	-25%	-12%
Cc1nc(C(F)(F)F)ccc1C(=O)N1CCC1(C)C(=O)NS(=O)(=O)c1cccc(C#N)c1 (configuration not stated)	-12%	3%
Clc1cccc(-c2nc3c4ccccc4ccn3c2CC2CCCCC2)c1	-14%	-6%
COCOCCn1cc(CN2CCS(=O)(=O)N(Cc3ccc(-c4ccc(F)cc4)cc3)C(C(C)C)C2=O)nn1 (configuration not stated)	?	?
COc1ccc(CNCCCn2cnc3c(OCc4ccccc4)ncnc32)cc1	-16%	9%
O=C(O)Cc1ccc(N2N=C(c3ccccc3)CC2=O)cc1	-2%	2%
CC1(C(=O)NS(=O)(=O)C2CC2)CCCN(C(=O)c2ccc3c(c2)OCO3)C1 (configuration not stated)	-24%	23%
CN1CCN(C(c2ccccc2)c2ccc(Cl)cc2)CC1 (configuration not stated)	-6%	-13%[18.4 µM]
C=CCOC(=O)C1=C[C@@H](c2csc3ccccc23)C[C@@H](OCCCCO)O1	-6%	-5%

Continued.
SMILES	2A StopGo	RE007 growth inh
CC(=O)Nc1ccc(-c2ccnc3c2CC(C(=O)Nc2cccc(N(C)C)c2)O3)cc1 (configuration not stated)	-15%	1%
O=C(Nc1ccc(F)cc1)C(c1cc2ccccc2o1)N1CCN(c2cccc(C(F)(F)F)n2)CC1 (configuration not stated)	-8%	2%
Cc1ccc2nc(-c3ccco3)c(CC3CCCCC3)n2c1	-14%	?
CCOc1cc(/C=N/NC(=O)c2c(C)nc3ccc(Cl)cn23)ccc1O	-19%	8%
CCc1nc2ccc(C(=O)N3CCN(S(=O)(=O)CC)CC3)cn2c1N(C)C(=O)c1cccc(OC)c1	-11%	1%
CC(=O)Nc1ccc(C=C(C#N)c2ccc(C)cc2)cc1	76%[activator]	8%
CCOC(=O)C1(C)CCCN(C(=O)c2ccc(N(C)C)cc2)C1 (configuration not stated)	0%	1%
COC(=O)c1cnc(Nc2nc(CN)cs2)nc1C(F)(F)F	-15%	-5%
CN1C(=O)[C@@](O)(c2cn(C)c3ccccc23)c2cc(F)ccc21	-16%	-1%
Cn1c(=O)c2cc(NC(=O)OCCF)ccc2n1Cc1cccc(C(F)(F)F)c1	-29%	11%
O=C1c2ccccc2S(=O)(=O)c2cc(-c3nn[nH]n3)ccc21	-3%	7%
Cc1ccc(-c2nc3cc(C)c(Br)c(C)n3c2Cc2ccsc2)cc1	15%	-15%
COc1ccc(-c2ccc(CN3C(C)C(=O)N(Cc4cn(CCC5OCCO5)nn4)CCS3(=O)=O)cc2)cn1 (configuration not stated)	-4%	-21%
CC(C)Oc1cc(F)ccc1-c1cc(C(=O)Nc2ccc(F)cc2)[nH]n1	?	11%
O=C1c2ccccc2C(c2nnnn2Cc2ccccc2)N1CCOc1ccccc1 (configuration not stated)	18%	-6%
COc1ccc([C@@H]2COc3c(ccc4c3C=CC(C)(C)O4)C2)c(OC)c1	-9%	-11%
CCCc1nc2ccc(C)cn2c1Cc1ccsc1	34%[activator]	-25%
CCN(CC)C(=O)c1ccc2nc([C@@H]3O[C@H](CO)[C@H](O)[C@H](O)[C@H]3O)[nH]c2c1	-21%	4%
COCC1=C(C(=O)OC(C)OC(=O)OC(C)C)N2C(=O)[C@@H](NC(=O)/C(=N\OC)c3csc(N)n3)[C@H]2SC1 (some centres not stated)	-16%	3%[18.4 µM]
O=C(Nc1ccccc1)c1cc(C2CCCCN2S(=O)(=O)c2cccs2)on1 (configuration not stated)	6%	0%
COc1ccc(OC)c(NCCN2C(=O)c3ccccc3C2=O)c1	7%	-8%
CCc1nc2c(OCc3ccc(C(F)(F)F)cc3)cccn2c1N(C)C(=O)c1ccc(C)cc1	?	-17%
O=C(c1ccccc1)N(CCCl)C(=O)N(CCCl)C(=O)c1ccccc1	3%	10%
COc1ccc(-c2cc(NC(C)=O)c3ncc(-c4cccc(C(C)=O)c4)n3c2)cc1OC	-20%	-6%[18.4 µM]
C[C@@H]1CN([C@H](C)CO)S(=O)(=O)c2ccc(Br)cc2O[C@H]1CN(C)C(=O)Nc1ccc(F)cc1	4%	8%

(list continues)
SMILES	2A StopGo	RE007 growth inh
CC1(C(=O)Nc2ccccc2F)CCN1C(=O)Cc1ccc(-c2ccccc2)cc1 (configuration not stated)	?	5%
Cc1cccc(S(=O)(=O)N(C)C[C@@H]2OCc3cnnn3CCCC(=O)N([C@@H](C)CO)C[C@@H]2C)c1	-20%	-14%
FC(F)(F)c1ccc(Cl)c(Nc2nnc(-c3ccncc3)s2)c1	-21%	2%
COc1ccc(S(=O)(=O)Nc2ccc3c(c2)C(=O)N([C@H](C)CO)C[C@H](C)[C@@H](CN(C)C(=O)Nc2ccc(F)cc2)OCCCC[C@H](C)O3)cc1	-22%	-4%
CCOC(=O)[C@]12CCC=C1N(Cc1ccc(Cl)cc1Cl)C(=O)[C@H](CC(=O)N1CCN(C(=O)c3ccco3)CC1)C2	0%	1%
CC(=O)Nc1ccc(-c2ccnc3c2CC(C)(C(=O)NC(C)C)O3)cc1 (configuration not stated)	-26%	1%
Cc1cccc(C)c1C(O)c1ncc(-c2ccccc2F)[nH]1 (configuration not stated)	-4%	-27%[18.4 µM]
CN1OC[C@@H]2CN[C@H](c3cccc(-c4ccccc4)c3)C[C@@H]21	-7%	0%
CCOC(=O)[C@]12CCCC=C1N(Cc1ccccc1)C(=O)[C@H](CC(=O)N1CCN(C(=O)C3CC3)CC1)C2	-12%	?
O=C(NCC(c1ccco1)N1CCCC1)c1cccc(S(=O)(=O)N2CCc3ccccc32)c1 (configuration not stated)	?	-14%
COc1cccc(-c2ccc3c(c2)C2CC3CCN2C(=O)c2ccc(Cl)cc2)c1 (configuration not stated)	-18%	-2%
CC(C)C[C@H]1CNC(=O)C(=O)N1C[C@H]1CCCN1C[C@H](CC(C)C)N1C[C@H](CC(C)C)N(CCc2ccccc2)C(=O)C1=O	-6%	-13%
COc1ccc(Cl)cc1C1=NOC2(CCC2)C(=O)N1Cc1ccc(NC(C)=O)cc1	-15%	-4%[18.4 µM]
CNC(=O)c1ccc(NC(=O)c2ccccc2OCc2c(C)noc2C)cc1	24%	-3%
C[C@H]1CN([C@@H](C)CO)C(=O)CCCn2cc(nn2)CO[C@@H]1CN(C)C(=O)Nc1ccc2c(c1)OCCO2	40%[activator]	-6%
Nc1[nH]c(C(=O)c2ccccc2)c(-c2ccncc2)c1C(=O)NC1CC1	-22%	-5%
CC(C)(C)S(=O)(=O)N1Cc2ccc(CO)cc2[C@H]1CCO	-4%	5%
CCCS(=O)(=O)NC(=O)C1(C)CCN(C(=O)c2ccccc2Br)C1 (configuration not stated)	-19%	-13%
Cc1ccc(S(=O)(=O)N(C)c2ccc3c(c2)C(=O)c2ccccc2-3)cc1	0%	-17%[18.4 µM]
CN(C(=O)c1cccc(NC(=O)Cc2ccc(NC(=O)C3CCN(C(=O)C4CCC4)CC3)cc2)c1)C1CCC1	-19%	3%
Cc1ccc(S(=O)(=O)N2CC3C(=O)C[C@@H](c4ccccc4)N(S(=O)(=O)c4cccc(Cl)c4)C3CC2c2ccccc2)cc1 (some centres not stated)	-17%	-4%
COc1ccc(CN2CCC2(C)C(=O)Nc2cnc3ccccc3c2)c2ccccc12 (configuration not stated)	-7%	-3%[18.4 µM]
CC1(C(=O)NCc2ccccc2)Cc2c(-c3cccc(C(F)(F)F)c3)ccnc2O1 (configuration not stated)	?	-5%
COC(=O)CC(=O)c1ccc2c(c1)OCO2	-9%	-10%
CC(C)c1cc(-c2cc(C(=O)Nc3ccccc3)on2)nc(NC2CCCC2)n1	-21%	-3%

Grouped by structure: the compounds so far with an aryl thioether with sulfur outside any ring.
SMILES	2A StopGo	RE007 growth inh
CCSc1ccc(-c2cc(NC=O)c3ncc(-c4cccc(C(=O)NCCN(C)C)c4)n3c2)cc1	-15%	3%[18.4 µM]
CSc1ccc(CN2CCC(C)(Oc3ccc4ccccc4c3)C2)cc1 (configuration not stated)	-25%	-12%

Further structures:
SMILES	2A StopGo	RE007 growth inh
OC(c1ccccc1)(c1nc(-c2cc3ccccc3o2)cs1)C(F)(F)F (configuration not stated)	-18%	-5%[18.4 µM]
CCCCNC(=O)C1(C)CCN1Cc1ccc(C#N)cc1 (configuration not stated)	-7%	14%[18.4 µM]
O=C(O)c1ccccn1	-15%	-2%
Cc1noc(C)c1COc1ccccc1C(=O)N1CCN(S(=O)(=O)c2ccc(C(C)C)cc2)CC1	?	4%
CC1CN(C)C(C)CC1OC(=O)C(c1ccccc1)c1ccccc1 (configuration not stated)	-17%	-19%
CCN(CC)C(=O)C(C)N1c2cccc3cccc(c23)S1(=O)=O (configuration not stated)	-19%	-20%
CC1(C(=O)Nc2ccc3c(c2)OCO3)Cc2c(-c3cccc(C(F)(F)F)c3)ccnc2O1 (configuration not stated)	-1%	1%[18.4 µM]
COc1ccc(CN2[C@@H](CC(=O)O)c3cc(F)ccc3S2(=O)=O)cc1	9%	-13%
CCCCN(C=O)c1c(CC)nc2ccc(C(=O)NCc3ccc4c(c3)OCO4)cn12	30%	0%[18.4 µM]
Cc1c(C)c2cc(Cl)c(OCC(=O)NCCCN3CCCC3=O)cc2oc1=O	-18%	-21%
N#CC1=C(Nc2ccccc2Cl)SC2(CCCC2)NC1=O	11%	7%[18.4 µM]
O=C1NC[C@@H](CCCCN2CCN(CCc3ccccc3)C(=O)C2=O)N(CCc2ccc(O)cc2)C1=O	-25%	14%
Cc1ccsc1C(=O)N1CCC1(C)C(=O)NS(=O)(=O)c1ccc(Br)cc1 (configuration not stated)	2%	3%[18.4 µM]
CC1(C(=O)NS(=O)(=O)c2ccc(Cl)s2)CCN1C(=O)C1(c2ccccc2)CCCC1 (configuration not stated)	3%	-14%
CSc1ccccc1C(=O)OCC(=O)Nc1c(C)n(C)n(-c2ccccc2)c1=O	-27%	-5%
Nc1ncnc2c1nc(-c1ccccc1)n2C1OC(CO)C(O)C1O (configuration not stated)	-9%	2%[18.4 µM]
COc1ccc(NC(=O)C2CC(=O)N(c3ccccc3F)C2)cc1S(=O)(=O)N1CCCCC1 (configuration not stated)	?	5%
CCOC1=C2CN(S(=O)(=O)c3ccc(C)cc3)[C@H](c3ccccc3)C[C@@H]2N(S(=O)(=O)c2ccc(Br)cc2)[C@H](c2ccccc2)C1	?	10%
Cc1noc(C)c1C(=O)N1CCC1(C)C(=O)NS(=O)(=O)c1cccc(F)c1 (configuration not stated)	11%	11%
COCC(=O)N1C[C@H](C)[C@H](OC)CN(C)C(=O)c2cc(NC(=O)Nc3cccc(F)c3)ccc2OC[C@@H]1C	-18%	0%
COc1ccc(C2=Nc3ccccc3N(C(=O)c3cc(Cl)cc(Cl)c3)C2C(=O)NCc2ccccc2)cc1 (configuration not stated)	-8%	-5%

5 entries from above, in CSV form.
SMILES,2A StopGo,RE007 growth inh
CSc1ccccc1C(=O)OCC(=O)Nc1c(C)n(C)n(-c2ccccc2)c1=O,-27%,-5%
Cc1c(C)c2cc(Cl)c(OCC(=O)NCCCN3CCCC3=O)cc2oc1=O,-18%,-21%
Nc1ncnc2c1nc(-c1ccccc1)n2C1OC(CO)C(O)C1O (configuration not stated),-9%,2%[18.4 µM]
Cc1ccsc1C(=O)N1CCC1(C)C(=O)NS(=O)(=O)c1ccc(Br)cc1 (configuration not stated),2%,3%[18.4 µM]
COCC(=O)N1C[C@H](C)[C@H](OC)CN(C)C(=O)c2cc(NC(=O)Nc3cccc(F)c3)ccc2OC[C@@H]1C,-18%,0%

Profiles as entered above. Values in the order: 2A StopGo, RE007 growth inh
O=C(O)c1ccccn1 is listed with -15%, -2%
CCOC1=C2CN(S(=O)(=O)c3ccc(C)cc3)[C@H](c3ccccc3)C[C@@H]2N(S(=O)(=O)c2ccc(Br)cc2)[C@H](c2ccccc2)C1 is listed with ?, 10%
